Menin-MLL FL inh = inhibitors of human menin-MLL interaction, wild-type MLL peptide; Fluorescence polarization, fluorescein-MLL peptide displacement from menin; FP activity change, % at 61.4 µM; 290,000 tested, under 10 active; inconclusive = falling polarisation curve, or a change in total fluorescence; inactive = total fluorescence flat and polarisation flat or rising; no compound was filed as active; the % refers to the polarisation; negative = inhibition;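 further: % of control where 0% means no effect; inhibitors lower the polarisation; unlabelled MLL peptide was the positive control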
PINK1 expr mod = changes PINK1 expression; Potency, µM (highest dose often 76.6 µM), for inactives: at the highest dose activation (PINK1 increase), hits mostly activators; 0.2% of 410,000 active; PINK1 immunofluorescence, high-content cytometry, 24 h; active = well fitted activation curve with a large enough effect; inconclusive = small, poorly fitted or top-dose-only effect; inactive = flat fitted curve, though single readings scatter; cell line not stated here;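 further: potency means the concentration at half of the fitted maximal effect; % of control where 0% means no effect; nearly all actives have a fitted effect of over 65% in size; a mitochondrial uncoupler was the plate control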
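PINK1 protein level read as immunofluorescence by microplate cytometer in a fixed, stained stable cell line after 24 h exposure to five compound concentrations, with CCCP as control.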
D2 ag = agonists of human D2 dopamine receptor (beta-arrestin) | 0.084% of 360,000 active | DiscoveRx PathHunter D2 beta-arrestin, luminescence, 90 min; 100% = 57 uM dopamine signal | AID 624465 | activation, % (concentration not given with the values); in the data active = activation above about 40%; inconclusive = about 15% to 40%; inactive = below about 15%; further: compound concentration not given in the record; the text of the record calls up to 30% inactive
Target sequence (P14416 whole entry, looked up): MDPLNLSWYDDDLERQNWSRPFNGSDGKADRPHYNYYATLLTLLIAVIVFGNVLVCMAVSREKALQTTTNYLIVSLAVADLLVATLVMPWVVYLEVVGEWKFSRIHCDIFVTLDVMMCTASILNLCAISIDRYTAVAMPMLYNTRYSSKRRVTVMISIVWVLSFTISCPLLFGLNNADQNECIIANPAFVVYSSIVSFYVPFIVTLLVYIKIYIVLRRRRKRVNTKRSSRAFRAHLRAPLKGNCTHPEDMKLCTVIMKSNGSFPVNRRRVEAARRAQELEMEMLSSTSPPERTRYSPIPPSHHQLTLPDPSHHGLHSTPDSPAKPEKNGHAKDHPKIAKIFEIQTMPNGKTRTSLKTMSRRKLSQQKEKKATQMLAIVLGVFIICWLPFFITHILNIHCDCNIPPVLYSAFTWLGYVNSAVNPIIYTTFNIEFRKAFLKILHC
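Agonist mode: compounds alone added to overnight-plated D2 PathHunter cells for 90 min at 37 C, with 57 uM final dopamine (EC100) defining full response. Beta-arrestin recruitment detected by chemiluminescent reagent, read after 1 h at ambient temperature.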
Sfp inh = Sfp phosphopantetheinyl transferase inhibition. Biochemical Sfp PPTase activity, qHTS. Q9F4F7. 3.5% of 310,000 active. Potency, µM, for inactives: max response, negative = inhibition, hits mostly inhibitors; active means well fitted inhibition curve with a large enough effect; inconclusive means small, poorly fitted or top-dose-only effect, or another doubt; inactive means no such curve, though single readings can be large or run the other way;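 further: the enzyme is Sfp with the accession as filed and its product quenches rhodamine fluorescence; potency means the concentration at half of the fitted maximal effect; 0% = enzyme reaction without inhibitor and -100% = no enzyme wells; top concentration of the series not given in the record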
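Buffer: 50 mM Hepes-Na pH 7.6, 10 mM MgCl2, 0.01% Nonidet P-40, 0.01% BSA. Enzyme 15 nM, pre-exposed to compound 15 min; substrates then added and fluorescence change tracked over 30 min.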
gsp antagonist = antagonists of gsp mutant (McCune-Albright syndrome); gsp-mutant cells, cAMP HTRF, 30 min; control for the full effect not named in the record; Potency, µM (series often up to 76.9 µM), without a hit: top-dose activity change, negative = inhibition, usual class: inhibitors; 0.4% of 340,000 active; active = falling curve of any shape with a large fitted effect; inconclusive = falling curve, mostly with a smaller effect; inactive = flat or rising curve; cell line not stated here;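 further: intracellular cAMP measured with PDE inhibitor Ro 20-1724 present during compound exposure; potency means the concentration at half of the fitted maximal effect; on the % scale 0 is the no-effect control and ±100 the full control effect; nearly all actives have a fitted effect of over 65% in size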
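HTRF cAMP read-out (cAMP-d2 plus anti-cAMP antibody-K in lysis buffer, 30 min RT). Before lysis, cells are exposed to compounds with […] for 30 min at 37C in DPBS containing Ca/Mg, BSA and Tween 20.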
gsp agonist = agonists of gsp mutant (McCune-Albright syndrome); 0.13% of 340,000 active; Potency, µM (doses to about 76.9 µM), for inactives: at the top dose activation (cAMP increase), most hits filed as activators; AID 624287; gsp mutant cells, cAMP HTRF, 30 min; control for the full effect not named in the record; active = well fitted activation curve with a large enough effect; inconclusive = small, poorly fitted or top-dose-only effect, or another doubt; inactive = no such curve, though single readings can be large or run the other way; cell line not stated here;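 further: phosphodiesterase inhibitor Ro 20-1724 added with compounds to block cAMP breakdown; potency means the concentration at half of the fitted maximal effect; nearly all actives have a fitted effect of over 60% in size; about a fifth of the inactives were tested at one dose only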
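Cells stably selected in G418 were plated at 2000/well, grown 16-24 hr, then given compounds in DMSO with the PDE inhibitor […] (300 uM solution added) for 30 min at 37C; cAMP was read by HTRF.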
ClpP mod = qHTS Assay for Activators of ClpP | ATP-dependent Clp protease proteolytic subunit (Bacillus subtilis (strain 168)), P80244 | purified B. subtilis ClpP, FRET peptide cleavage, 20 min | Potency, µM (top dose mostly 57.5 µM), for the others: at the highest dose activity change, negative = active | 1.9% of 340,000 active; active = well fitted falling curve with a large enough effect; inconclusive = small, poorly fitted or top-dose-only effect; inactive = no such curve, though single readings can be large or run the other way; further: potency means the concentration at half of the fitted maximal effect; the source files actives as falling curves though it sought activators and does not explain the sign; nearly all actives have a fitted effect of over 65% in size; many hits overshoot -100%
Target sequence (P80244 whole entry, looked up): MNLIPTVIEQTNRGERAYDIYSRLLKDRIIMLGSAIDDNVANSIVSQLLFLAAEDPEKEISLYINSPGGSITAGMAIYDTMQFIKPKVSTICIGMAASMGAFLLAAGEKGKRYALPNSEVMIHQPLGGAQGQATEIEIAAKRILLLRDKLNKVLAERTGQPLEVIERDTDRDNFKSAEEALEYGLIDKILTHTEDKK
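Buffer: 100 mM Tris/HCl pH8, 100 mM KCl, 0.05% low protease BSA, 2.5% glycerol, 0.01% Tween-20. ClpP 10 microg/mL final; 20 min RT; delta FRET normalized to ADEP and DMSO controls.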
* = called active by the depositor; ? = inconclusive; nt = not tested or not shown; & = joins results of further samples; [ ] = remark or other dose.

Under each structure – Menin-MLL FL inh, PINK1 expr mod, D2 ag, Sfp inh, gsp antagonist, gsp agonist, ClpP mod
Oc1ccc(N2CCN(Cc3cc4c(cc3Br)OCCO4)CC2)cc1
 : 8.9, 3.6%, 4.7, 50µM*, 3%, -32%[inhibitor], nt
Cc1cc(Br)ccc1NC(=O)CN(C)C(=O)C1=COCCO1
 : nt, 0.0%, 3.9, nt, 10%, 0%, -0.3%
COc1ccc(NC(=O)N2CCC3(CC2)CCN(C(=O)c2ccco2)CC3)cc1
 : 0.4, 0.7%, nt, 18%, nt, nt, nt
CCOC(=O)Nc1c(Cl)n(C)c(=O)n(C)c1=O
 : -2.2, 2.4%, 2.7, 20%, 1%, 28%, -3.0%
COc1cc(C)c(Cl)cc1S(=O)(=O)n1cnc(C)c1
 : 1.2, nt, 0.9, -4%, 2%, 6%, -0.4%
Cc1ccc(NC(=O)CSc2nc(=O)cc(N)n2CCc2ccccc2)cc1
 : -4.3, 1.1%&2.0%, -3.6, -1%, 45%[activator], -7%, -2.2%&-2.5%
Cc1cc(NC(=O)CCCn2cnc([N+](=O)[O-])n2)no1
 : -2.6, 1.6%, 0.9, 14%, 11%, ?, 0.7%
COc1ccc(NC(=O)Nc2ccc(Cc3ccncc3)cc2)c(OC)c1
 : 0.8, 1.1%, 0.5, -5%, -7%, -8%, -19%
COc1cc(/C=C(\NC(C)=O)C(=O)N2CCCCC2)ccc1OC(C)=O
 : 3.3, 0.5%, 7.4, -4%, -11%, -36%, -0.4%
Cc1sc(NC(=O)C2=COCCO2)c(C#N)c1C
 : nt, -1.7%, -4.1, nt, 9%, 4%[15.4 µM], nt

Brought forward from above: 4 compounds, then new ones.
Under each structure – Menin-MLL FL inh, PINK1 expr mod, D2 ag, Sfp inh, gsp antagonist, gsp agonist, ClpP mod
Cc1cc(NC(=O)CCCn2cnc([N+](=O)[O-])n2)no1
 : -2.6, 1.6%, 0.9, 14%, 11%, ?, 0.7%
COc1ccc(NC(=O)Nc2ccc(Cc3ccncc3)cc2)c(OC)c1
 : 0.8, 1.1%, 0.5, -5%, -7%, -8%, -19%
COc1cc(/C=C(\NC(C)=O)C(=O)N2CCCCC2)ccc1OC(C)=O
 : 3.3, 0.5%, 7.4, -4%, -11%, -36%, -0.4%
Cc1sc(NC(=O)C2=COCCO2)c(C#N)c1C
 : nt, -1.7%, -4.1, nt, 9%, 4%[15.4 µM], nt
CC(NC(=O)COc1ccc(/C=N/NC(=O)C(=O)Nc2ccccc2Br)cc1)c1ccccc1 (stereo unspecified)
 : 0.7, 13%, -1.7, -3%, -18%, 19%, 162%
O=C(OCC(=O)N1N=C(c2ccc(Cl)cc2)CC1c1ccco1)c1cncc(Br)c1 (stereo unspecified)
 : nt, 4.4%, -2.1, nt, 0%, 0%, nt
Cc1ccc(S(=O)(=O)NCc2ccccc2)cc1C(=O)NCCc1ccc(S(N)(=O)=O)cc1
 : nt, 0.6%, 1.8, nt, 21%, ?, -0.5%
COc1cccc(/C=N/NC(=O)C(C)Sc2ccccc2)c1 (stereo unspecified)
 : -5.6, -2.1%, -3.8, 6%, -15%, 7%[15.4 µM], nt
O=c1c2cccnc2n(-c2ccccc2)n1Cc1ccc(Cl)cc1
 : -3.0, 6.3%, -1.6, 6%, 16%, -7%[15.4 µM], nt
O=C(COC(=O)c1c[nH]c(=O)[nH]c1=O)Nc1cccc([N+](=O)[O-])c1
 : nt, -0.4%, -3.8, nt, -8%, ?, -3.5%
Cc1ccc2cc(CN(Cc3ccc4c(c3)OCO4)Cc3nnnn3Cc3ccco3)c(=O)[nH]c2c1
 : 9.3, 4.3%, -3.7, 25µM*, -20%, 13%, -11%
Cc1cc(C)c(-c2nc3ccccc3s2)[nH]1
 : -5.4, 3.6%, 0.1, -3%, -4%, 15%[15.4 µM], nt
O=C(COC(=O)c1cc2c(s1)CCCC2)NCc1ccccc1Cl
 : 4.3, 3.4%, -0.7, 4%, 6%, -33%[inhibitor], -0.3%
Cc1ccc(Cl)cc1-n1c(SCC(=O)NCCC2=CCCCC2)nc2n[nH]c(C)c2c1=N
 : -10, 2.4%, -4.9, 9%, -22%, ?, 36%
Cn1nnnc1SCC(=O)Nc1ccc(Br)cc1Cl
 : 4.8, -0.4%, -2.2, 4%, 1%, ?, -1.6%
O=c1c2ccccc2oc2cc(C#CC3(O)CCCCC3)ccc12
 : nt, 1.9%, -7.6, nt, -12%, ?, -17%
O=C(Nc1ccnn1C1CCN(Cc2ccccc2)CC1)c1ccccc1Cl
 : nt, -0.1%, -6.5, 16%, -1%, -27%, -3.1%
Cc1cccc(C)c1NC(=O)C1=C(O)c2ccccc2N(C)S1(=O)=O
 : -1.0, 0.4%, -2.6, 15%, -25%, 13%, 0.2%
O=C(CSc1ccc(-c2ccco2)nn1)Nc1ccc(F)cc1F
 : nt, 0.1%, 0.9, 50µM*, 0%, 1%, -29%
COc1ccc(CCNC(=O)CSc2ncn[nH]2)cc1
 : -0.8, 4.2%[38.3 µM], -1.5, 12%, 0%, ?, 0.7%
COC(=O)[C@]1(C)N[C@H](CN(C)C(=O)Nc2ccc(C)cc2)[C@@H]2C(=O)N(C)C(=O)[C@@H]21
 : nt, 0.5%, -2.8, nt, 5%, nt, -1.9%
CCc1ccc(NC(=O)NCc2cccnc2)cc1
 : -6.8, 1.8%, -6.9, -2%, 18%, -16%, 0.0%
CCc1ccccc1NC(=O)Cn1nc(C(F)(F)F)c2c1CCC2
 : -1.1, 0.3%&1.2%, -1.4, 21%, 6%, 4%, 0.7%&-0.6%
C#CC(=O)N(c1cc(OC)ccc1OC)C(C(=O)NC1CCCC1)c1cccs1 (stereo unspecified)
 : 4.7, -3.4%, -8.0, -4%, 15%, -29%, -2.8%

Retrieved one by one from the list above, three records:
Under each structure – Menin-MLL FL inh, PINK1 expr mod, D2 ag, Sfp inh, gsp antagonist, gsp agonist, ClpP mod
O=C(Nc1ccnn1C1CCN(Cc2ccccc2)CC1)c1ccccc1Cl
 : nt, -0.1%, -6.5, 16%, -1%, -27%, -3.1%
Oc1ccc(N2CCN(Cc3cc4c(cc3Br)OCCO4)CC2)cc1
 : 8.9, 3.6%, 4.7, 50µM*, 3%, -32%[inhibitor], nt
Cc1cc(C)c(-c2nc3ccccc3s2)[nH]1
 : -5.4, 3.6%, 0.1, -3%, -4%, 15%[15.4 µM], nt

(list continues)
Under each structure – Menin-MLL FL inh, PINK1 expr mod, D2 ag, Sfp inh, gsp antagonist, gsp agonist, ClpP mod
CCOc1cc(NC(=S)NCCOC)c(OCC)cc1NC(=O)c1ccco1
 : 5.1, -1.7%, 5.7, 20%, -20%, ?, nt
C#CCn1c(O)c(N=NC(=O)CNC(=O)/C=C/c2ccccc2)c2ccccc21
 : 2.8, -0.2%, -8.9, 11%, 28%, -1%[15.4 µM], 0.6%
CCc1ccc(NC(=O)CSc2nnc(-c3n[nH]c4ccccc34)n2-c2ccccc2)cc1
 : 4.5, 6.0%, 0.7, -25%, -16%, 1%, -0.4%
CC(C)CCNC(=O)C1(C)CCN1Cc1ccc2ccccc2c1 (stereo unspecified)
 : nt, 4.7%, 4.8, nt, nt, nt, -3.3%
CCOC(=O)CNC(=O)Nc1cc(C(C)(C)C)nn1-c1ccccc1
 : 2.0, 0.9%, 0.0, 11%, 9%, -40%[inhibitor], -2.3%
CN(C)C(=S)c1ccc2ccccc2n1
 : 1.1, -1.8%, -2.6, 15%, 2%, ?, 5.1%
c1ccc(CC[C@@H]2CC[C@@H](CCc3ccccc3)N2)cc1
 : nt, 15%, -3.7, nt, 13%, -18%, 1.1%
COc1ccc(-c2nnc3ccc(SCc4ccccc4)nn23)cc1
 : 4.7, 4.7%, 2.3, -4%, 6%, ?, 2.0%
N#Cc1ccc(OCC(=O)Nc2ccc(N3CCCC3)cc2)cc1
 : nt, 0.8%, 8.6, nt, -17%, 10%, -6.0%
CC#CCCc1nc2ccccc2c(=O)n1N
 : 7.2, -0.6%, 2.9, -13%, 5%, -7%, -1.3%
O=C(CSc1nnc(COc2cccc3ccccc23)o1)N1CCN(C(=O)c2ccco2)CC1
 : 0.4, -6.5%[38.3 µM], 0.0, 13%, 2%, 12%, 0.1%
Cc1ccc(S(=O)(=O)Nc2cccc(-n3cnnn3)c2)cc1C(=O)O
 : nt, 2.2%, -2.6, 10%, 0%, ?, 1.4%
CCN(Cc1ccccc1)C(c1ccc(Cl)cc1)c1nnnn1C(C)(C)C (stereo unspecified)
 : 4.1, -0.9%, -7.0, ?, -5%, -24%, -2.1%
CC(C)(C)S(=O)N1Cc2cc(C(=O)NCCCN3CCOCC3)nc(-c3cccc(-c4cc5ccccc5o4)c3)c2[C@@H]1CCO (stereo partly specified)
 : nt, -1.1%, 11, nt, nt, nt, -19%
CCCCn1c(N)c(N(CC(C)C)C(=O)c2ccc(Br)s2)c(=O)[nH]c1=O
 : 0.6, 0.3%, -9.3, 10%, 16%, ?, -1.7%
Cc1nc(-c2ccc(Cl)cc2)sc1C(=O)NNC(=O)C(C)C
 : -0.5, 3.0%, 2.1, 23%, 5%, -2%[15.4 µM], nt
O=C1NC2(CCCCCC2)C(=O)N1Cc1cccc(Cl)c1
 : -2.4, 0.0%, -2.2, 22%, 7%, -7%[15.4 µM], nt
COc1cc(CC(=O)OCC(=O)c2ccc(F)cc2)cc(OC)c1OC
 : nt, 1.0%, -0.1, nt, 7%, 10%[15.4 µM], -12%
O=c1[nH]c2ccc(S(=O)(=O)Nc3ccc(Cl)cc3)cc2[nH]1
 : 4.1, 0.8%, 2.8, 2%, ?, 8%, 1.3%
COc1cccc(/C=C/C(=O)OCC(=O)NCC2CCCO2)c1 (stereo unspecified)
 : 2.3, 0.8%, -8.7, 14%, -4%, -26%, -28%

Source: PubChem BioAssay (National Center for Advancing Translational Sciences (NCATS))
